# TRPV1 PAM: enhances activation of the human vanilloid receptor TRPV1; Q8NER1; TRPV1-expressing cells, Fluo-8 calcium influx, capsaicin EC20 potentiation; host cell line not named in the record; control for the full effect not named in the record; potentiation, % at 8.33 µM; 0.02% of 320,000 active; AID 540277; active means potentiation above 80%; inconclusive means 30% to 80%; inactive means below 30%; note: 0% is about no effect
#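 Cells expressing TRPV1 were dye-loaded with Fluo-8 and read kinetically: 10 s baseline, 3 min after compound (agonist portion), then 2 min after EC20 capsaicin (allosteric enhancer portion). Calcium-bound dye fluorescence at 480/520 nm.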
# D2 PAM: positive allosteric modulators of human D2 dopamine receptor. P14416. DiscoveRx D2 beta-arrestin cells, luminescence, 90 min; 100% = 57 uM dopamine signal. potentiation, % (test concentration not listed). 0.23% of 360,000 active. AID 624464; active = potentiation of 50% or more; inconclusive = 30% to 50%; inactive = 30% or less;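 note: compound concentration not given in the record; tested on top of an EC20 dose of dopamine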
#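 D2 cells co-treated with compound plus 50 nM dopamine (EC20) for 90 min at 37 deg C to detect potentiation. Beta-arrestin recruitment was read as enzyme-fragment luminescence after 1 h at ambient temperature. Full response was set by 57 uM dopamine.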
# TRPML1 agonist: human mucolipin-1 channel agonism. Q9GZU1. TRPML1-expressing cells, Ca2+ dye fluorescence, FDSS; host cell line not named in the record; reference of the full effect not given here. activation, % (concentration not given with the values). 0.12% of 410,000 active. AID 624414; in the data active = activation above about 50%; inconclusive = about 30% to 50%; inactive = below about 30%; note: 0% is about no effect; the text of the record puts the active cut at 80%
#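 Agonist activity was taken from a 110 s kinetic Ca2+ dye read on the FDSS after pinning compounds onto TRPML1-DL cells. The cells were seeded at 1,500/well with Tet inducer, incubated about 16 h, then dye-loaded at room temperature.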
# TRPML1 inh: blocks the human TRPML1 channel; TRPML1-inducible cells, Ca2+ dye fluorescence, FDSS; hits give low values; inhibition of EC80 agonist-evoked calcium signal; activity change, negative = inhibition, % (no concentration beside the values); 0.02% of 390,000 active; in the data active means activity change below about -50%; inconclusive means about -30% to -50%; inactive means above about -30%;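 note: stimulus is agonist 54-4 at its EC80 concentration; % is set by controls: 0 for no effect and ±100 for the full control effect; compound concentration not given in the record; the text of the record puts the active cut at -80%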
#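 Calcium fluorescence in TRPML1-DL cells induced overnight with Tet: a 110 s read after compound pin addition, then a 110 s antagonist read after challenge with 54-4 at 4 uM final (EC80).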
# CtBP-E1A blk: blocks the CtBP interaction with E1A; activity change, % (no concentration beside the values); 0.49% of 340,000 active; AlphaScreen GST-E1A/His-CtBP binding, 1536-well; hits give low values; control for the full effect not named in the record; AID 651724; in the data active means activity change below about -65%; inconclusive means about -30% to -65%; inactive means above about -30%; note: % is set by controls: 0 for no effect and ±100 for the full control effect; compound concentration not given in the record
#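 Protein mix (5X: 125 nM each GST-E1A, His-CtBP) was incubated with pinned compound 2 h at 37 deg C in dark, in 50 mM Tris pH 8.0 buffer with 300 mM NaCl. Glutathione donor and nickel acceptor beads followed; AlphaScreen signal read after 1 h.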
# Six1-Eya2 blk: inhibitors of human Six1/Eya2 interaction | Q15475+O00167 | 0.56% of 360,000 active | activity change, % (no concentration beside the values) | AlphaScreen GST-Six1/His-Eya2 binding, biochemical; hits give low values; control for the full effect not named in the record | AID 651725; in the data active = activity change below about -65%; inconclusive = about -30% to -65%; inactive = above about -30%; note: % is set by controls: 0 for no effect and ±100 for the full control effect; compound concentration not given in the record
# Target sequence (O00167 whole entry, looked up): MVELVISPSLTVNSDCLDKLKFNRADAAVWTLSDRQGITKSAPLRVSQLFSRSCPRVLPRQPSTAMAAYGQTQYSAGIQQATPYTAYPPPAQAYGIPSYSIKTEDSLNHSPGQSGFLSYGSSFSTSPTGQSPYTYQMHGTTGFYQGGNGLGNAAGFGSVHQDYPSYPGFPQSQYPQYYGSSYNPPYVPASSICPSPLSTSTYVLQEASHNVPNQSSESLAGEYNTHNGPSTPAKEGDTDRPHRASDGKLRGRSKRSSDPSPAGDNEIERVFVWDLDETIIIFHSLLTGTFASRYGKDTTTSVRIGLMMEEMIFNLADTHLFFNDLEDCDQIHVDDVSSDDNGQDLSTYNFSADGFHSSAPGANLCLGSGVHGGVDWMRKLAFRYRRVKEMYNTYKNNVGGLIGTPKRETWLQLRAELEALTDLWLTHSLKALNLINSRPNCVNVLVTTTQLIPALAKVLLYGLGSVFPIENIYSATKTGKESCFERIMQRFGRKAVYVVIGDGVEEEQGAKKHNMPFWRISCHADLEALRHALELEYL
# Target sequence (Q15475 whole entry, looked up): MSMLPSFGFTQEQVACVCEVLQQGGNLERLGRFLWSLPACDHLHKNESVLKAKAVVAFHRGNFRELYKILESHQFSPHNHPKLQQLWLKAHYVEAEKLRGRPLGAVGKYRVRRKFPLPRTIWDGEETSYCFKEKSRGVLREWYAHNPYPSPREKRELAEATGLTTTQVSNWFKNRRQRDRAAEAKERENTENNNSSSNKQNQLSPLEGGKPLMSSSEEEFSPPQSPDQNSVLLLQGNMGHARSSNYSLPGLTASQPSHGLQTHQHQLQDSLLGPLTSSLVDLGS
#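 AlphaScreen with GST-Six1 and His-Eya2 (5X mix: 250 nM and 500 nM), glutathione donor and nickel acceptor beads; buffer 50 mM Tris pH 8.0, 300 mM NaCl, 1 mM TCEP; 1 h at 37 C in the dark.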
# * marks the source's active call; other numbers are inactive results; ? = inconclusive; nt = not tested or not shown; & = joins results of further samples. A portion of the library; count on the stated rates, not on these rows.
SMILES,TRPV1 PAM,D2 PAM,TRPML1 agonist,TRPML1 inh,CtBP-E1A blk,Six1-Eya2 blk
c1cc(CNCCc2ccc3c(c2)OCO3)ccn1,8,-32,-0.3,-5,nt,12
COc1ccc(NC2=NCCCS2)cc1OC,0,-3,0.6,9,-1,9
Cc1cc(=O)oc2cc3c(cc12)CCCN3,4,-8,1.3,-24,nt,20
O=c1[nH]c(CN2CCNCC2)nc2ccccc12,0,-5,0.1,6,1,-2
NCC1(c2ccc3c(c2)OCCO3)CCCC1,19,19,-0.1,22,0,1
CN(C)Cc1c[nH]c2cc([N+](=O)[O-])ccc12,nt,-5,-0.2,-2,-1,2
COc1ccc(CCNC2CCCCCC2)cc1,?,-15,0.0,-6,4,1
CCCNC(=O)N1[C@H]2CC[C@@H]1C(C(=O)OC)=C(c1ccc(OC)c(OC)c1)C2,-4,19,-0.4,-2,9,11
O=C(CN1C2CCC1CC(O)(c1cccnc1)C2)Nc1ccc2c(c1)OCO2 (stereo not drawn),-3,-29,4.4,-13,-2,0
COC(=O)C1=C(c2ccc(F)cc2F)C[C@@H]2CC[C@H]1N2C(=O)NCCOc1ccccc1,7,-15,0.3,4,nt,-3

# The final 5 records of the section above come first, to join the parts:
SMILES,TRPV1 PAM,D2 PAM,TRPML1 agonist,TRPML1 inh,CtBP-E1A blk,Six1-Eya2 blk
CN(C)Cc1c[nH]c2cc([N+](=O)[O-])ccc12,nt,-5,-0.2,-2,-1,2
COc1ccc(CCNC2CCCCCC2)cc1,?,-15,0.0,-6,4,1
CCCNC(=O)N1[C@H]2CC[C@@H]1C(C(=O)OC)=C(c1ccc(OC)c(OC)c1)C2,-4,19,-0.4,-2,9,11
O=C(CN1C2CCC1CC(O)(c1cccnc1)C2)Nc1ccc2c(c1)OCO2 (stereo not drawn),-3,-29,4.4,-13,-2,0
COC(=O)C1=C(c2ccc(F)cc2F)C[C@@H]2CC[C@H]1N2C(=O)NCCOc1ccccc1,7,-15,0.3,4,nt,-3
COc1cccc(O)c1CN1CCCC(C(=O)c2sccc2C)C1 (stereo not drawn),0,-32,0.9,8,-1,-3
Cc1ccc(/C=C2/C(=O)NC(=O)N(CCc3ccc(F)cc3)C2=O)s1,?,-20,0.1,0,10,2
COc1ccccc1C(=O)Nc1ccc2c(c1)CC1(C(=O)N(C)C(=O)N(C)C1=O)C1CCCN21 (stereo not drawn),6,4,0.4,37,-8,13
CCN(C(=O)Oc1ccccc1)c1ccc(C(O)(C(=O)OC)C(F)(F)F)cc1 (stereo not drawn),22,-19,0.1,5,6,-1
CC(C)Oc1ccc(C2C(C#N)=C(N)Oc3c2c(=O)oc2ccccc32)cc1 (stereo not drawn),2,0,-0.2,11,6,0
Clc1ccc(CCNCc2ccncc2)c(Cl)c1,-3,-11,2.6,-2,6,7
CCC(C)NC(=O)c1c(N)n(CC2CCCO2)c2nc3ccccc3nc12 (stereo not drawn),-12,-2,-1.0,31,44,41
O=C1NC2C(O)C(O)C(O)C(O)C2c2cc3c(c(O)c21)OCO3 (stereo not drawn),nt,-13,0.7,15,0,6
CN1CC2([N+](=O)[O-])CC=C(Cl)C([N+](=O)[O-])(C1)C2 (stereo not drawn),5,12,-0.5,20,4,1
O=[N+]([O-])c1ccc(NC2CCN(Cc3ccccc3)CC2)c2ccncc12,19,-4,-0.8,-3,0,-8
COc1ccc2c(c1)/C(=C/c1cnc[nH]1)C(=O)N2,11,-1,0.1&-0.4&-0.1,-7,-23,-25
CN1C(=O)NC(=O)/C(=C/c2ccc(C(=O)O)cc2)C1=O,17,-6,nt,nt,1,2
S=C(NC1CCCCC1)N1CCC(c2cnc[nH]2)CC1,nt,-2,0.6,10,-16,5
CC(NC(=O)N1CC1(C)C)c1ccccc1 (stereo not drawn),nt,-2,-0.2,-12,2,8
O=C1Nc2ccccc2/C1=C/c1nc2ccccc2c(=O)n1-c1ccc(O)cc1,14,9,2.5,-5,-13,-7
CCOc1ccc(C2SCC(=O)Nc3c2c(=O)[nH]n3C2CCCCCC2)cc1 (stereo not drawn),4,-1,0.2,3,4,0
CC1CCCC(NC(=O)CNC(=S)N2CC3CC(C2)c2cccc(=O)n2C3)C1C (stereo not drawn),1,-2,0.6,-2,7,6
O=C1C2CCCN2C(c2cccc(Cl)c2)N1c1ccccn1 (stereo not drawn),-1,-17,0.3,1,1,-1
COc1ccc(CN2Cc3cc(-c4ccc(OC)cc4)ccc3-n3nncc3C2)cc1,nt,-6,-0.6,nt,-24,-26
Nc1ccnn1C1CCNCC1,-4,-3,0.1,-3,12,1
CCCCCCOc1ccc(CN2CCN(C)CC2)cc1,28,-11,1.0,0,-8,-4
c1cc2c(c(NC3=NCCCS3)c1)CCCC2,nt,2,-0.4,-12,1,2
CC(C)(C)C(=O)c1cn(Cc2ccccc2)c2ccccc12,?,7,0.6,8,38,10
O=C1/C(=C/c2cc([N+](=O)[O-])ccc2Cl)N2CCC1CC2,nt,-4,0.6,-10,-12,-2
COc1cc2c(c(OC)c1OC)-c1ccc(O)c(=O)cc1C(NC(C)=O)CC2 (stereo not drawn),-3,-5,-0.1,-4,0,4
Cn1ccc(NC(=O)CCl)n1,-17,3,0.2,-4,0,-2
CCOc1ccc(-n2c(O)c(N=Nc3ccc([N+](=O)[O-])cc3)c(=O)[nH]c2=O)cc1,11,-10,2.2,3,nt,7
CCCCCCC(=O)N/N=C/c1c(O)n(CCCC)c(=S)[nH]c1=O,-16,-18,0.4,-4,?,?
CC(C)CNP(=S)(c1ccccc1)C(C)(C)C (stereo not drawn),-3,-1,nt,nt,23,9
CN1C(=O)N(C)C(=O)C2(Cc3cc([N+](=O)[O-])ccc3N(C)C2c2ccccc2)C1=O (stereo not drawn),-4,-5,-0.4,0,9,10

# Arranged by length of the SMILES (largest number first): some entries from above.
SMILES,TRPV1 PAM,D2 PAM,TRPML1 agonist,TRPML1 inh,CtBP-E1A blk,Six1-Eya2 blk
O=[N+]([O-])c1ccc(NC2CCN(Cc3ccccc3)CC2)c2ccncc12,19,-4,-0.8,-3,0,-8
CCCCCCC(=O)N/N=C/c1c(O)n(CCCC)c(=S)[nH]c1=O,-16,-18,0.4,-4,?,?
CC(NC(=O)N1CC1(C)C)c1ccccc1 (stereo not drawn),nt,-2,-0.2,-12,2,8

# Individual results from the results shown:
# `O=C1/C(=C/c2cc([N+](=O)[O-])ccc2Cl)N2CCC1CC2` – TRPML1 inh: -10
# `CCOc1ccc(-n2c(O)c(N=Nc3ccc([N+](=O)[O-])cc3)c(=O)[nH]c2=O)cc1` – D2 PAM: -10

# Next part
SMILES,TRPV1 PAM,D2 PAM,TRPML1 agonist,TRPML1 inh,CtBP-E1A blk,Six1-Eya2 blk
Cc1c(C(c2ccccc2Cl)c2c(O)c3ccccc3oc2=O)c(=O)n(-c2ccccc2)n1C (stereo not drawn),?,-2,-0.9,-6,-1,-11
COC(=O)C1=C(c2ccc(C(C)=O)cc2)C[C@@H]2CC[C@H]1N2C(=O)NCc1ccc(F)cc1,-7,-3,0.7,-21,0,-2
COc1ccc([N+](=O)[O-])cc1N=Cc1c(O)n(CCc2ccccc2)c(=O)n(C(C)C)c1=O,-2,-6,0.7,11,-6,-12
Brc1ccc2c(c1)-n1nncc1CN(CC1CCCCC1)C2,nt,-3,-0.6,nt,-5,0
CCOc1cc2c(cc1OCC)-n1cccc1C(c1cccc(OCC)c1O)NC2 (stereo not drawn),6,-25,1.6,-15,-25,-6
FC(F)(F)Oc1ccc(NC2=NCCCS2)cc1,-28,-2,-0.7,3,nt,-1
COC(=O)C1=C(c2ccc(F)cc2OCc2ccccc2)C[C@@H]2CC[C@H]1N2C(=O)N1CCOCC1,-17,-3,-0.4,4,3,-1
COC(=O)C1=C(c2cccc(OCc3ccccc3)c2)C[C@@H]2CC[C@H]1N2C(=O)NCc1ccc(N(C)C)cc1,2,-15,0.5,4,?,?
O=S(=O)(c1ccc(Cl)cc1)c1ccc(Cl)cc1,-4,0,0.1,-1,24,-4
CC(=O)NC1CC2CCC(C1)N2 (stereo not drawn),6,-13,0.7,-10,-1,-1
O=c1[nH]c(=S)[nH]c(O)c1N=Nc1ccc2c(c1)OCO2,3,-12,0.9,7,-8,-17
Oc1c(Br)c(Br)c(Br)c(Br)c1Br,11,-14,-0.5,-8,-11,-4
CCS(=O)(=O)CCSP(=O)(OC)OC,nt,-20,0.3,-12,-12,21
CC(=O)OC1CCC2(C)C(CCC3C2CC(=O)C2(C)C3CC(N3CC3)C2C(C)=O)C1 (stereo not drawn),nt,-5,0.4,13,-8,3
COc1ccc(CCNCc2cccc(C(F)(F)F)c2)cc1OC,-4,14,3.6,-5,nt,1
Clc1cccc(N2Cc3ccccc3-n3nncc3C2)c1,nt,-1,-0.5,nt,4,-3
CCOC(=O)CC(SP1(=S)OCC2(CC=CCC2)CO1)C(=O)OCC (stereo not drawn),nt,-13,0.3,-13,33,32
COc1ccccc1CN1CCN(C(=O)Cc2ccccc2)CC1,5,-39,-0.4,1,4,2
COc1ccc(-n2c(/C=C/c3cccc(F)c3)nc3ccccc3c2=O)c(OC)c1,19,-4,1.3,3,3,0
N#C/C(=C(/O)c1ccc(S(=O)(=O)N(CCCl)CCCl)cc1)c1nc2ccccc2[nH]1,22,1,-0.5,-19,0,26

# High-throughput results as filed in PubChem.
